Source: PubChem (ICCB-Longwood Screening Facility, Harvard Medical School)
LANA-nucl inh = inhibitors of KSHV LANA-nucleosome binding, primary screen, biochemical, fluorescence polarization, FITC-LANA1-23, chicken nucleosomes | z-score (no concentration beside the values) | 51,000 tested, 0.3% active | FITC-LANA1-23 / chicken nucleosome fluorescence polarization; active compounds read low | AID 720717, 2013;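 active = both repeat wells score below -2 in polarization z-score versus plate sample wells, excluding overly bright wells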;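 also: 100 nL library stock added to about 30 µL; numbers are from one replicate; some results filed as inactive read as strong as hits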
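System – purified chicken nucleosomes with FITC-labelled LANA N-terminal peptide (1-23) · Amount – 240 nM purified chicken nucleosomes (480 nM peptide binding sites), final · Also added – 50 nM FITC-LANA1-23 probe · Medium – TEN-BT buffer, pH 7.5 · Incubation – compound with peptide–nucleosome mix 10–45 min at room temperature · Detection – fluorescence polarization, ex 480 nm, em 535 nm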
BasE inh = BasE siderophore enzyme inhibitors, primary screen, biochemical, Acinetobacter baumannii ATCC 17978, fluorescence polarization | purified BasE, fluorescence polarization binding displacement | inhibition, % (concentration not given with the values) | 84,000 tested, 0.1% active | AID 485350, 2010;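 active = both replicates above 25% with normal brightness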;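 also: 0% = negative plate control signal and 100% = positive plate control signal; stock transfer was 100 nL into about 30 µL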
An asterisk follows results filed as active; / = not tested or not shown; & = joins results of further samples. Only part of the results is shown (hit frequency here may not be typical).

SMILES | LANA-nucl inh | BasE inh
N#CC(C#N)=C1C=C2C=C(N3CCCCC3)CCC2CC1 (configuration not stated) | / | 12.6
O=C(NCCN1CCOCC1)Nc1c[nH]c2ccccc2c1=O | 0.0985 | 0.7
CC1(C)C(c2ccc(F)cc2)=[N+]([O-])C(C)(C)C(c2ccc(F)cc2)=[N+]1[O-] | / | 2.5
COc1ccc(C(=O)O)cc1S(=O)(=O)N(C)CCc1ccccn1 | / | -5.2
C/C(=N\N=C(/C)c1cccs1)c1cccs1 | 0.453 | -0.6
CCC(C)NC(=O)c1nn(Cc2ccccc2)c(=O)c2ccccc12 (configuration not stated) | / | 0.7
COC(=O)CCn1c(C)cc(C(=O)CSc2cccc[n+]2[O-])c1C | / | 1.1
CC(C(=O)NC1CCCCCC1)n1c(=O)c2cccn2c2cccnc21 (configuration not stated) | -0.353 | -1.6
CSC1=NSC2=NC(=O)/C(=C\c3ccc(-c4ccccc4)o3)C(=N)N12 | -0.0815 | 11.9
COc1ccc(CN=C(C)c2c(O)c3ccccc3n(C)c2=O)cc1 | / | -3.3
CCCn1c(=O)cc(N)n(-c2ccc(Cl)cc2)c1=O | / | -1.6
CC(C)N(C(=O)NC(=O)c1ccc(F)cc1F)C(C)C | / | 1.9
CN1CCc2nc(NC(=O)c3ccc(S(=O)(=O)N(C)C)cc3)sc2C1 | / | 0.7
CC1Cc2cc(S(N)(=O)=O)ccc2N1Cc1cc(Cl)cc2c1OCOC2 (configuration not stated) | / | 0.4
Cc1ccc2cc(CN(CCN3CCCC3)C(=O)NC3CCCCC3)c(=O)[nH]c2c1C | 0.448 | -5.8
Oc1cccc(-c2nc(=S)c3c([nH]2)Oc2ccccc2C3)c1 | 0.385 | 3.2
O=C(CN1CCOCC1)N/N=C/c1ccccc1 | -0.639 | 1.5
Cc1noc(C)c1C(=O)c1c(C)[nH]n(-c2ccccc2)c1=O | -0.231 | 0.8
C=CCNS(=O)(=O)c1ccccc1 | / | 1.6
CC1(C)CC(=O)C=C(NCCc2ccccc2)C1 | 1.43 | -4.0
Cn1c(CCC(=O)O)nc2ccccc2c1=O | / | -1.4
COCc1ccc(C(=O)NCc2ccncc2)cc1 | 0.549 | 0.0
CCOC(=O)/C(=C\c1ccsc1)C1=Nn2c(nnc2-c2ccc(OC)cc2)SC1 | / | 2.2
O=S(=O)(c1ccc(-c2ccccc2)cc1)N1CCCC1 | 0.998 | -0.5
CC(NC1CCCc2ccccc21)C(=O)NCc1ccc2c(c1)OCO2 (configuration not stated) | / | -0.7
O=C(O)c1ccccc1C(=O)NCC(O)c1ccccc1 (configuration not stated) | -1.17 | 0.8
CCCn1c(NC(=O)CCC2CCCC2)nc2ccccc21 | / | 1.1
C=CCn1c(COc2ccc(OC)cc2)n[nH]c1=S | 0.454 | -0.8
COc1ccc(Br)cc1CN1CCN(C(=O)c2cccc(OC)c2OC)CC1 | 0.33 | 0.9
Cc1noc(C)c1COc1ccc(C(=O)NCc2cccnc2)cc1 | / | -0.7

Part of the list above, as tab-separated lines:
canonical_smiles	LANA-nucl inh	BasE inh
COCc1ccc(C(=O)NCc2ccncc2)cc1	0.549	0.0
CCOC(=O)/C(=C\c1ccsc1)C1=Nn2c(nnc2-c2ccc(OC)cc2)SC1	/	2.2
O=S(=O)(c1ccc(-c2ccccc2)cc1)N1CCCC1	0.998	-0.5
CC(NC1CCCc2ccccc21)C(=O)NCc1ccc2c(c1)OCO2 (configuration not stated)	/	-0.7
O=C(O)c1ccccc1C(=O)NCC(O)c1ccccc1 (configuration not stated)	-1.17	0.8
CCCn1c(NC(=O)CCC2CCCC2)nc2ccccc21	/	1.1

New compounds follow:
SMILES | LANA-nucl inh | BasE inh
CC(=O)Nc1ccc(S(=O)(=O)c2ccc(NC(C)=O)cc2)cc1 | 0.156 | /
C=CCc1ccccc1OCC(O)CN1CCNCC1 (configuration not stated) | -0.049 | 1.5
CCCCC1C(=O)NC(=Nc2nc(C)c3ccc(OC)cc3n2)NC1=O (configuration not stated) | 0.805 | -2.2
O=C(c1ccco1)N1CCCC(c2nc(-c3ccc(S(=O)(=O)NCc4ccccc4)cc3)no2)C1 (configuration not stated) | 0.735 | 1.5
CNC(=O)/C=C1/N(C)c2ccccc2C1(C)C | / | 0.2
C=CCc1ccccc1OCc1cc(=O)n2nc(CC)sc2n1 | 0.803 | -1.7
CC1CCN(C(=O)COC(=O)c2cccc(I)c2)CC1 | / | -2.6
O=C1CSC(=O)N1c1ccccc1 | -0.104 | -1.7
CCOC(=O)c1cc2c(c(CSc3ccc(Cl)cc3)c1)OCOC2 | / | 0.9
COc1ccc(-c2nc(SC(CC(=O)NCc3ccco3)c3cc(OC)c(OC)c(OC)c3)n[nH]2)cc1 (configuration not stated) | 0.404 | -1.6
CC(=NCc1ccccc1)c1c(C)cc(C)cc1O | / | 3.9
CC(=O)N1c2ccc(S(=O)(=O)N(C)CC(=O)Nc3cccc(C)c3)cc2CC1C (configuration not stated) | -0.0465 | -0.9
O=C(Cc1cccs1)NCCOc1ccccc1F | / | 3.3
N#Cc1c(=O)c2cccnc2n2c1sc1ccccc12 | / | 0.9
Cc1ccc(S(=O)(=O)N(C)CC(=O)OCc2nc3ccccc3s2)cc1 | / | 1.1
CC1=CC(C)C(CNc2ccccc2)C(C)C1 (configuration not stated) | / | 0.4
O=S(=O)(NCc1ccco1)c1ccc(S(=O)(=O)N2CCCCC2)cc1 | -0.597 | -1.1
CSc1ccc(/C=C2\SC(=O)N(CCNC(=O)CSCc3c(C)noc3C)C2=O)cc1 | / | 1.2
Cc1nc2c(c(=O)c3ccccc3n2C)c(=O)n1Cc1ccco1 | -1.05 | 1.2
Cc1onc(C(C)C)c1C(=O)O | -0.235 | 2.3
Cc1cc(CNS(=O)(=O)c2ccc(N3CCOCC3)nc2)c(C(F)(F)F)o1 | 0.272 | -0.7
CC1=C(C#N)C(c2ccccc2)C2=C(CC(C)(C)CC2=O)N1 (configuration not stated) | -1.18 | /
CCN(c1ccccc1)S(=O)(=O)c1ccc(N(C)C2CCCCC2)nc1 | / | 3.4
CCc1nc2cc(CC(=O)O)ccc2o1 | -0.344 | /
C#CCOc1cccc(C=Nn2cnnc2)c1 | 0.739 | -2.0
CCC(=O)N1c2ccc(S(=O)(=O)CCC(=O)Nc3ccccc3OC)cc2CC1C (configuration not stated) | -0.455 | 2.0
C(=C\c1ccccc1)/CSc1nnc(COc2ccccc2)n1Cc1ccco1 | -0.2 | 0.5
Cc1ccc(NC(=O)NC2CCN(C(=O)N3CCOCC3)CC2)cc1 | -0.646 | 0.2
C=CCn1cc(/C=C2/NC(=O)N(c3ccccc3)C2=O)c2ccccc21 | / | 1.3
CSc1sc(C(=O)NC(=O)Nc2ccc(Cl)cc2)c2c1-c1nocc1CC2 | 0.178 | 2.1

A draw from above in order of number of heavy atoms, highest first:
SMILES | LANA-nucl inh | BasE inh
CCC(=O)N1c2ccc(S(=O)(=O)CCC(=O)Nc3ccccc3OC)cc2CC1C (configuration not stated) | -0.455 | 2.0
C=CCn1cc(/C=C2/NC(=O)N(c3ccccc3)C2=O)c2ccccc21 | / | 1.3
C#CCOc1cccc(C=Nn2cnnc2)c1 | 0.739 | -2.0

(list continues)
SMILES | LANA-nucl inh | BasE inh
CCOc1ccc(NC(=O)C2CCN(C(=O)c3ccccc3)CC2)cc1 | / | -0.8
O=C(NCCc1ccccc1)C1CCN(c2nc3ccccc3o2)CC1 | -0.916 | 2.8
CCC(Sc1nc(C)cc(=O)[nH]1)C(=O)Nc1ccc(Cl)cn1 (configuration not stated) | / | -1.9
Cn1c(CSC2CN(C(c3ccccc3)c3ccccc3)C2)n[nH]c1=S | / | -1.7
Cc1ccc(S(=O)(=O)N2CCC(c3nc4cc(C(=O)NCc5ccco5)ccc4n3C3CCCCC3)CC2)cc1 | -1.14 | 2.8
CC(C)CN(CC(C)C)Cn1nc(-c2ccc3c(c2)OCO3)oc1=S | / | 0.4
CCN1C(=O)C(O)(CC(=O)c2cc(C)ccc2C)c2ccccc21 (configuration not stated) | 1 | -1.4
CCOC(=O)c1c(C)n(CCNC(C)=O)c2cc(Br)c(OC)cc12 | 1.29 | -3.8
Oc1ccc(Nc2ncnc3ccccc23)cc1 | -0.316 | 1.2
O=C(O)CSCc1ccsc1 | / | 0.7
CCOC(=O)N/N=C1\CCCc2ccccc21 | -0.672 | 1.6
Cc1ccc(NC(=O)CNC2CCS(=O)(=O)C2)cc1C (configuration not stated) | / | -2.7
CN(Cc1ccco1)C(=O)c1ccc2c(c1)CC(c1ccccc1)OC2=O (configuration not stated) | / | -1.0
CCn1c(CNC(=O)c2ccncc2)cc2ccccc21 | -1.19 | 1.0
O=C(COc1ccccc1)Nc1nc2ccccc2[nH]1 | / | 1.0
COC(=O)c1ccccc1S(=O)(=O)N1CCN(S(=O)(=O)c2cccs2)CC1 | / | -0.1
COc1ccc(S(=O)(=O)Nc2cccc(C(F)(F)F)c2)cc1OC | 0.493 | -1.1
O=C(O)[C@@H]1CCCN1C(=O)c1ccccc1F | / | -1.7
FC(F)(F)c1ccccc1NC(=S)N1CCC2(CC1)OCCO2 | 0.35 | -1.8
CC(=O)N(C(C)=O)c1c(N2CCOCC2)c2ccccc2oc1=O | 0.37 | 0.8
COC(=O)COc1ccc(NC(=O)c2ccccc2C)cc1 | -0.607 | -0.7
COc1ccc(C2(C(=O)O)CCCC2)cc1OC | 0.294 | 0.6
CCn1nc(C)c(CCNC(=O)NCCc2ccccc2)c1C | -0.473 | -0.2
CN(Cc1ccccc1)S(=O)(=O)c1ccc2[nH]c(=O)c(=O)[nH]c2c1 | 0.0245 | 0.6
COc1cccc(OC)c1C(=O)N1CCCN(c2nc3ccc(Cl)cc3s2)CC1 | / | -1.3
COC(=O)c1ccc(CSc2nnc(Cc3cccs3)n2C2CCCCC2)o1 | / | 2.0
CN(Cc1ccccc1)C(=O)CN1CCN(Cc2ccc(Cl)cc2)C1=O | -0.348 | 1.3
Cc1nnc(NC(=O)CCc2c[nH]c3ccccc23)o1 | / | 1.3
CC1CCN(c2nnc(-c3cccs3)c3ccccc23)CC1 | / | 1.3
FC(F)Oc1ccc(NC(=S)NNc2nc3ccccc3o2)cc1 | / | 1.4

4 of the compounds above, as labelled records:
smiles: CCn1nc(C)c(CCNC(=O)NCCc2ccccc2)c1C
  LANA-nucl inh: -0.473
  BasE inh: -0.2

smiles: FC(F)(F)c1ccccc1NC(=S)N1CCC2(CC1)OCCO2
  LANA-nucl inh: 0.35
  BasE inh: -1.8

smiles: COc1cccc(OC)c1C(=O)N1CCCN(c2nc3ccc(Cl)cc3s2)CC1
  LANA-nucl inh: /
  BasE inh: -1.3

smiles: CC1CCN(c2nnc(-c3cccs3)c3ccccc23)CC1
  LANA-nucl inh: /
  BasE inh: 1.3

Additional entries follow.
SMILES | LANA-nucl inh | BasE inh
CCOC(=O)C(C)n1cnc2c(nnn2Cc2ccc(Cl)cc2)c1=O (configuration not stated) | 0.746 | -0.6
c1ccc(C2=NNC(=NCC3CCCO3)SC2)cc1 (configuration not stated) | / | -0.3
O=C(NCc1ccc(F)cc1)c1cc(-c2ccccc2)n[nH]1 | / | -5.9
N#C/C(=C\c1ccc(O)c(O)c1)C(=O)NCc1ccccc1 | -0.163 | 1.6
CC(C)[C@H](NC(=O)c1ccccc1)C(=O)Nc1ccc(N2CCOCC2)cc1 | / | 0.1
Cc1cc(C(=O)CCC(=O)N(C)Cc2c(C)nn(-c3ccccc3)c2C)c(C)s1 | / | -2.5
O=C(Nc1ccnn1C1CCCC1)c1ccc(OC(F)F)cc1 | / | -3.2
COCCCNC1=C(C#N)C(=O)NC(c2cccs2)S1 (configuration not stated) | -1.26 | 2.3
Cc1cc(C)nc(/N=C(/NC(=O)C(C)(C)C)Nc2ccccc2)n1 | -0.229 | 3.2
CCC(=O)N(c1nnc(SCC(=O)N2CCCc3ccccc32)s1)C1CC1 | / | 7.9
CN(C)c1cccc(C(=O)OCC(=O)C23CC4CC(CC(C4)C2)C3)c1 | / | 1.5
CCOc1cc(/C=C(\C#N)C(=O)NCc2ccco2)ccc1O | / | 0.5
Nc1ccc(-c2ccccc2C(=O)O)cc1 | -0.0265 | -0.3
CCCCC1(O)CC(C)(C)N([O])C(C)(C)C1 | -1.17 | 3.0
CCOC(=O)c1ccc(NC(=O)CN2N=C(c3ccc(OC)cc3)CCC2=O)cc1 | -0.324 | -3.6
Cc1cc(NC(=O)Nc2ccc(Cl)cc2)n(-c2ccccc2)n1 | -1.54 | -2.5
O=C(Cc1ccc(S(=O)(=O)N2CCOCC2)s1)Nc1ccccc1N1CCOCC1 | / | -1.2
CN(C)c1ccc(N/C=C/C(=O)c2ccco2)cc1 | -1.03 | 0.9
CC1=CCC2C(=O)N(c3ccc(C4CCCCC4)cc3)C(=O)C2C1 (configuration not stated) | / | -0.4
CCC[C@@H]1C[C@@H](C(=O)N[C@H]([C@H]2O[C@H](SC)[C@H](O)[C@@H](O)[C@H]2O)[C@H](C)O)N(C)C1 | 0.881&-0.524 | 0.7
CC(C)CC(=O)Nc1nn2c(COc3ccccc3)nnc2s1 | -0.666 | 0.2
CCOC(=O)c1sc(I)c(C#N)c1C | / | -1.8
Cc1ccc(C(=O)OC(C)C(=O)NC2CCCCC2)cc1S(=O)(=O)N1CCCCC1 (configuration not stated) | / | 0.7
Cc1ccnc(NCc2cccc3ccccc23)c1 | -0.551 | 1.9
OC1(C(F)(F)F)CC(/C=C/c2ccc3c(c2)OCO3)=NN1 (configuration not stated) | / | 0.9
